# BJeLR lethal: BJeLR cell viability loss. BJeLR (HRASV12) viability, CellTiter-Glo ATP luminescence, 48 h; reference of the scale not given here. inhibition, % (concentration not given with the values). 0.17% of 300,000 active;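 active means replicate mean above 50%; inconclusive means above 50% but judged a plate artefact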;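 further: 50 nL library stock added to about 25 µL; numbers are from one replicate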
# RN4220 kill: kills Staphylococcus aureus RN4220 | inhibition, % (test concentration not listed) | 0.33% of 330,000 active | AID 1259311 | S. aureus RN4220 growth, OD600, 16 h;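 active means z-score of -3 or lower and OD600 up to 0.18 on both plates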;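 further: plate controls were untreated cells for no effect and reference antibiotic for full effect; stock transfer was 100 nL into about 80 µL; one replicate is shown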
# PrP UTR inh: suppresses PrP 5' UTR mRNA reporter expression; 0.35% of 340,000 active; cell-based PrP 5' UTR mRNA reporter, plate reader; inhibition, % (concentration not given with the values); AID 488862;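 active means every replicate at 50% or more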;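 further: 0 = median of the neutral control wells; tested in H4 reporter cells; numbers are from one replicate; inactives centre near -14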
# Autofluor counter: compound fluorescence in toxin protease inhibitor counterscreen. compound autofluorescence counterscreen, microsphere flow cytometry; stronger effect = higher value. fluorescence intensity (test concentration not listed). 3.1% of 360,000 active. AID 624483;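 active means at least 3 SD above the mean of all compounds, about 16000 in these data; inconclusive means too few beads counted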;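 further: 100 nL of 1 mM stock went into each well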
# Mtb hypoxia rep: Mtb hypoxia fluorescent reporter inhibition; fluorescence inhibition, % (concentration not given with the values); M. tuberculosis hypoxia-regulated fluorescent reporter, fluorescence; AID 1159583; 0.1% of 300,000 active;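 active means 35 to 45% if threefold the growth effect, above 45% if 1.5-fold the growth effect; inactive means the rest, general growth blockers included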;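 further: wells of about 50 µL received 100 nL stock; 0% = vehicle wells and 100% = reference inhibitor wells; whole bacteria with a GFP reporter of the hypoxia response; strong numbers were not always called active; many hits fall short of the cut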
# ugtP null kill: kills S. aureus RN4220 lacking UgtP | S. aureus RN4220 ugtP deletion, OD600 growth, 16 h; some inactives read as strong as hits | growth inhibition, % (test concentration not listed) | 0.54% of 330,000 active;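 active means z-score under -3 and OD600 up to 0.15 on both plates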;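 further: plate controls were untreated wells for no effect and antibiotic for full effect; wells of about 80 µL received 100 nL stock; the first replicate is given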
# Mtb hypoxia rep growth: second read-out of Mtb hypoxia rep, no call of its own (marks repeat the call); growth inhibition, %; measured here: M. tuberculosis growth (absorbance);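 0% = vehicle and 100% = reference antibiotic; read after six days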
# The depositor's hits bear a star; ? = inconclusive; nt = no result given.
# The line under a structure holds: BJeLR lethal	RN4220 kill	PrP UTR inh	Autofluor counter	Mtb hypoxia rep	Mtb hypoxia rep growth	ugtP null kill
CCOC(=O)c1[nH]c2ccc(F)cc2c1N=C(C)N(CC)CC
  -3	0.5	-20	4170	nt	nt	1
CCOc1ccccc1N1CCN(CC(=O)Nc2nnc(CC)s2)CC1
  -3	2.9	-14	3574	nt	nt	7
O=C(NCC(c1cccs1)N1CCOCC1)c1cc(S(=O)(=O)N2CCOCC2)ccc1F (stereo not given)
  -6	6.4	-23	?	6	10	9
O=C(NCc1ccco1)c1cc([N+](=O)[O-])ccc1Cl
  -20	6.0	-13	3729	6	3	8
CC(=O)Nc1ccc(S(=O)(=O)N2CCN(CC3CC4C=CC3C4)CC2)cc1 (stereo not given)
  3	1.8	-4	3755	2	6	6
COc1cc(O)c(C(CCN2CCCCC2)c2ccc(N(C)C)cc2)c(OC)c1 (stereo not given)
  -1	1.8	-8	4056	6	3	-2
C=CCOc1ccc(/C(O)=C2/C(=O)C(=O)N(CCCN3CCOCC3)C2c2ccc(OC)cc2)cc1 (stereo not given)
  1	3.1	-21	4405	nt	nt	7
COc1cc(CCC(=O)OCC(=O)Nc2c(Cl)cccc2Cl)cc(OC)c1OC
  2	5.0	-8	5697	5	-3	5
CC(C)Cn1c(N)c(C=NNC(=O)c2ccc(Cl)cc2)c(=O)n(C)c1=O
  nt	6.5	nt	nt	15	3	5
Cc1sc(NC(=O)C2=COCCO2)c(C(N)=O)c1C
  -1	4.3	-11	4420	-1	-1	7
Cc1c(N2C(=O)/C(=C3\C(=O)N(CC(=O)O)c4ccccc43)SC2=S)c(=O)n(-c2ccccc2)n1C
  3	2.5	-10	3606	7	0	0
O=C(COC(=O)c1cccc(S(=O)(=O)N2CCc3ccccc32)c1)NCc1ccco1
  -5	5.8	-2	3982	13	2	4
Cc1cc(C)c(C(=O)Nn2c(C)nc3ccccc3c2=O)cc1C
  -2	5.5	-9	3857	6	-2	0
Cn1c(N)cc(=O)n(C)c1=S
  nt	4.0	-27	3051	0	-4	4
CCOc1cccc2cc(C(=O)N3CCOCC3)c(=O)oc12
  9	4.2	-3	5722	4	-4	8
C(=N\Nc1nc(-c2ccccc2)cs1)/c1ccco1
  -1	nt	-104	2317	nt	nt	nt
Fc1ccccc1CSc1nnc(-c2cccs2)o1
  -3	12	-189	7962	nt	nt	2
COc1cc(C=NNC(=O)c2ccc(N)cc2)ccc1OC(=O)c1cccc(C)c1
  nt	-1.2	nt	nt	10	4	-1
Cc1ccc(S(=O)(=O)NCC(=O)OCC(=O)c2c(N)n(C)c(=O)n(C)c2=O)cc1
  -5	-0.6	2	2467	-6	8	4
CNc1c([N+](=O)[O-])ncn1C
  7	2.4	-17	2974	nt	nt	6
Cc1ccc2c(CC(=O)NCc3ccc4c(c3)OCO4)coc2c1
  -15	-3.7	-10	3232	8	3	13
O=C(Nc1ccc(S(=O)(=O)NCC2CCCO2)cc1)c1ccc(Cl)cc1[N+](=O)[O-] (stereo not given)
  -9	-5.0	-23	3340	-13	6	-3
COc1ccc(-c2cc(C(F)(F)F)nc(S(=O)(=O)CCCC(=O)Nc3cc(C)on3)n2)cc1OC
  -2	3.5	-16	4240	8	8	4
CCCOc1ccccc1C1SCC(=O)Nc2c1c(=O)[nH]n2C(C)CCC (stereo not given)
  0	0.6	-16	4630	nt	nt	-2
Nc1ncc(CCN2CCOCC2)c(-c2ccc(F)cc2)n1
  9	3.2	-22	4133	6	-4	2
CC1CCCCN1c1ccc(N)cc1C(N)=O (stereo not given)
  2	5.9	-20	2319	-3	4	3
O=C(NCc1ccc(F)cc1)c1cc(S(=O)(=O)N2CCCCC2)ccc1N1CCOCC1
  nt	1.6	-7	4209	-4	6	3
COc1ccc(NC(=O)CN2c3cccc4cccc(c34)S2(=O)=O)c(OC)c1
  -1	5.3	-41	8923	10	5	8
O=C(O)c1ccccc1OC(C(=O)Nc1cc(Cl)cc(Cl)c1)c1ccccc1 (stereo not given)
  -1	0.0	-17	6736	6	2	7
O=C(Cn1ccn(-c2ccc(F)c(Cl)c2)c(=O)c1=O)NCCc1ccccc1
  2	0.6	-16	4761	3	-1	12

# Going on with the list:
# The line under a structure holds: BJeLR lethal	RN4220 kill	PrP UTR inh	Autofluor counter	Mtb hypoxia rep	Mtb hypoxia rep growth	ugtP null kill
Cc1ccc(/C=C(/C#N)C(=O)NC(=O)Oc2ccccc2)cc1
  -5	2.7	-32	9770	11	2	10
Nc1nc(SCC(=O)Nc2ccc(F)cc2)[nH]c(=O)c1NC(=O)c1ccc(F)c(F)c1
  -1	4.1	-3	5865	6	7	-2
CC1CC(C)CN(c2ccc(C(=O)NCc3ccc4c(c3)OCO4)cc2[N+](=O)[O-])C1 (stereo not given)
  -14	-11	-13	2527	-5	8	-10
O=C(CSc1nc2ccccc2s1)NNC(=S)Nc1ccccc1
  -19	8.5	-6	2182	5	7	-1
COc1ccc(N(CC(=O)NC2CCCCC2)C(=O)CCC(=O)Nc2nc(C)cs2)cc1
  3	0.5	-7	3921	3	-2	10
NC(=O)COC(=O)c1ccc(S(=O)(=O)NCc2ccco2)cc1
  -1	2.3	-19	4157	6	2	7
COc1ccc(/C=C2\CCC(C3CCCC3)C2=O)cc1OC (stereo not given)
  -3	1.5	-32	4046	15	11	13
COc1cc(OC)c(N2CC34C=CC(O3)C(C(=O)O)C4C2=O)cc1Cl (stereo not given)
  4	-6.9	-31	3513	18	9	-4
Cc1ccsc1C(=O)NCc1ccc(Cl)cc1
  -5	2.1	nt	?	20	17	6
O=[N+]([O-])c1cc(S(=O)(=O)O)cc([N+](=O)[O-])c1NN(c1ccccc1)c1ccccc1
  -5	1.5	-5	3753	3	4	15
CCN1CCN(C(=O)/C(=C/c2ccco2)NC(=O)c2ccccc2)CC1
  6	-0.5	-17	3647	5	9	3
O=[N+]([O-])c1ccccc1S(=O)(=O)N1CCCc2ccccc21
  -14	10	-1	3951	6	8	3
CCOc1ccc2oc(C(=O)NCc3nc4ccccc4[nH]3)c(C)c2c1
  6	-3.1	-12	4925	0	-7	19
Cc1ccc(-c2nn3c(C)nnc3c3ccccc23)cc1S(=O)(=O)NCc1ccccc1
  -2	7.1	-19	11182	3	2	6
CC(=NN1CCN(c2ccccc2)CC1)c1ccco1
  nt	8.9	nt	nt	13	-2	11
CC(C)Nc1c(N)c(=O)oc2ccccc12
  -8	2.7	-4	2471	nt	nt	7
CS(=O)(=O)N1CCC(C(=O)NCc2ccncc2)CC1
  -2	-2.9	-14	3908	nt	nt	2
CC(C)c1ccc(NC(=O)CNC(=O)Cn2ccc3ccccc3c2=O)cc1
  -1	-1.7	0	3794	-3	10	1
Cc1nn(-c2ccc(NC(=O)c3ccncc3)cc2)c(C)c1Cl
  8	4.7	-31	3303	3	-2	-7
C=C1C(=O)C=C2CN(C(=O)c3ccccc3)[C@@](Cc3ccc(F)cc3)(C(=O)OC)[C@@H]12
  107*	nt	-24	3239	nt	nt	nt
C=C[C@@H]1C[C@@]1(C)[C@@H](NP(=O)(c1ccccc1)c1ccccc1)c1ccccc1
  0	nt	-20	3636	nt	nt	nt
COc1ccccc1CC(=O)Nc1cccc(S(=O)(=O)N2CCOCC2)c1
  -4	4.5	-5	4972	2	-3	11
O=C(NC1CCCCC1)N1CCN(c2ccc([N+](=O)[O-])cc2)CC1
  2	1.3	-5	5386	14	12	9
CC1CCN(CCCNC(=O)C2CC(=O)N(C3CCCCCC3)C2)CC1 (stereo not given)
  -3	6.4	-13	3223	-3	-1	-6
COc1ccc(CC2S/C(=N/N=C/c3ccccc3O)NC2=O)cc1 (stereo not given)
  5	nt	-30	4912	nt	nt	nt
COc1ccccc1/C=C/C=N/NC(=O)CN1CCN(S(=O)(=O)c2ccc(C)cc2)CC1
  -2	nt	-42	2530	nt	nt	nt
CCCCc1c(C)c(C#N)c2nc3ccccc3n2c1Nc1c(C)n(C)n(-c2ccccc2)c1=O
  6	-7.2	0	4658	nt	nt	-1
CC1=CCC(C(=O)O)(C(=O)NN=Cc2cccnc2)C(c2ccccc2)C1 (stereo not given)
  nt	2.1	nt	nt	7	12	-3
Cc1ccccc1N1C(=O)NC(=O)/C(=C\c2cnn(-c3ccccc3)c2)C1=O
  -8	5.6	-9	2380	7	9	0
Cc1ccn2c(NC3CCCC3)c(-c3ccccn3)nc2c1
  -1	9.1	-16	3545	-4	6	-2

# Next entries follow:
# The line under a structure holds: BJeLR lethal	RN4220 kill	PrP UTR inh	Autofluor counter	Mtb hypoxia rep	Mtb hypoxia rep growth	ugtP null kill
COc1ccc(C=NNC(=O)c2ccccc2O)cc1CSc1ccccn1
  nt	11	nt	nt	2	3	8
Cc1ccc(C(=O)NC2CCCc3ccccc32)o1 (stereo not given)
  0	1.7	-33	22743*	17	17	-4
CCc1cc(CNC(=O)CC2C(=O)NCCN2Cc2ccc(-c3ccccc3)cc2)on1 (stereo not given)
  -1	5.6	-4	5626	9	8	-2
CCn1c(SCC(=O)Nc2cc(C)on2)nnc1-c1cccs1
  0	12	-15	4945	nt	nt	5
CCCN(CCC)[C@@H]1CCc2cccc(O)c2C1
  4	nt	-20	6059	nt	nt	nt
CCOc1ccc(OCC)c(NC(=O)CCn2cccc2)c1
  -15	1.7	-8	?	-5	12	-5
COCCN1C(=O)C(=O)/C(=C(/O)c2cccc(OC)c2)C1c1ccncc1 (stereo not given)
  1	-1.8	-28	3587	nt	nt	7
Cc1ccc(CNC(=O)c2ccc(N3CCC4(CC3)CC(c3cccc(Br)c3)=NO4)c(NC(=O)c3ccccc3)c2)cc1
  1	11	-12	4459	5	5	2
N#CC(C#N)=c1ccc2c(c1)N1C(c3ccccc3)=CC(c3ccccc3)C3CCCCC31N=2 (stereo not given)
  -7	-3.6	-2	2699	4	-3	10
COCCC(=O)N1CCC(Oc2ccc(C(=O)NCc3cc(C)n(C)n3)cc2)CC1
  -13	-1.3	-14	6241	8	-5	6
CC(=O)C1=C(O)C(=O)N(Cc2cccnc2)C1c1ccc(Cl)cc1Cl (stereo not given)
  -22	-0.9	-18	6545	-1	0	0
COc1ccc(-c2noc(CCC(=O)N3CCN(c4ccc(Cl)cc4)CC3)n2)cc1
  nt	1.1	4	4152	5	15	-1
CSC1=NCCN1C(=O)c1cccs1
  3	1.2	-29	5481	nt	nt	2
O=C(NCc1cccc2ccccc12)Nc1ccccc1
  -4	-3.4	-21	2089	8	9	-7
Cc1ccc(Nc2nc(N3CCOCC3)c3ccccc3n2)cc1
  11	3.2	-21	3574	-2	2	1
CC(Oc1ccc2c(-c3ccccc3)cc(=O)oc2c1)C(=O)NCCCn1ccnc1 (stereo not given)
  4	-3.6	-17	5369	nt	nt	-3
Cc1ccc(NS(=O)(=O)c2ccc(NC(=O)N3CCCCC3)cc2)cc1
  4	2.1	-15	6243	-6	-11	3
COCc1c(C(=O)OCc2nc3ccsc3c(=O)[nH]2)oc2ccccc12
  nt	-1.9	4	3713	-2	9	-1
COCCOC(=O)c1c(C)oc2ccc(O)c(CN3CCC(C)CC3)c12 (tested in a mixture with another compound)
  nt	2.7	-3	4121	7	0	4
NC(=O)c1ccccc1NC(=O)COC(=O)C1(c2ccccc2)CC1
  -8	4.7	-14	?	9	3	15
Cc1ccc2c(c1)nnn2C1CCN(C(=O)Nc2ccccc2C)CC1
  3	3.5	-13	2358	2	3	3
O=[N+]([O-])c1ccc(N2N=C(c3ccco3)CC2c2ccccc2)cc1 (stereo not given)
  1	-6.4	-5	4856	nt	nt	5
O=C(Cn1c(=O)c2cccn2c2cccnc21)N1CCN(c2ccc(Cl)cc2)CC1
  -7	-0.1	-22	4458	2	-7	-9
CCC(C)c1ccc(OCCN2CCCC2)cc1 (stereo not given)
  -14	0.6	-14	3963	nt	nt	14

# Grouped by structure, the compounds so far with a cyano group.
# The line under a structure holds: BJeLR lethal	RN4220 kill	PrP UTR inh	Autofluor counter	Mtb hypoxia rep	Mtb hypoxia rep growth	ugtP null kill
Cc1ccc(/C=C(/C#N)C(=O)NC(=O)Oc2ccccc2)cc1
  -5	2.7	-32	9770	11	2	10
CCCCc1c(C)c(C#N)c2nc3ccccc3n2c1Nc1c(C)n(C)n(-c2ccccc2)c1=O
  6	-7.2	0	4658	nt	nt	-1
N#CC(C#N)=c1ccc2c(c1)N1C(c3ccccc3)=CC(c3ccccc3)C3CCCCC31N=2 (stereo not given)
  -7	-3.6	-2	2699	4	-3	10
